Screening data: PubChem, Center for Chemical Genomics, University of Michigan
CDC25B CDK2 inh = human CDC25B-CDK2/CyclinA binding inhibition; HTRF CDC25B-CDK2/CyclinA binding, anti-His/anti-Flag; active compounds read high; z-score (concentration not given with the values); hit rate 0.72% among 94,000;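 note: score is relative to mean and SD of negative controls; strong numbers were not always called active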
HIV TAR-Tat = HIV-1 TAR-Tat binding disruption | HIV-1 TAR RNA, Tat peptide displacement FRET; active compounds read high | z-score (concentration not given with the values) | hit rate 0.6% among 100,000;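 note: score is relative to mean and SD of negative controls; some compounds called inactive have numbers as strong as hits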
* marks the source's active call; other numbers are inactive results.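 Rule for the calls: active = z-score from 3 up in half or more of its runs; inactive = the rest.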

COc1ccc(-c2noc(-c3ccc(OC)c(OC)c3)n2)cc1OC was read as CDC25B CDK2 inh -0.21 and HIV TAR-Tat -0.66.
`CCOC(=O)c1c(C)[nH]c(C)c1S(=O)(=O)Nc1ccc(Br)c(C)c1` gave HIV TAR-Tat -0.38.
For CCCSCCCNC(=O)C(CC)n1c2ccccc2c2nc(=O)cc(C)n21 (stereo not drawn) the results were CDC25B CDK2 inh -0.26 and HIV TAR-Tat 1.21.
`COc1ccc(OC)c(C2CC(=O)Nc3cc(OC)c(OC)c(OC)c32)c1` (stereo not drawn) gave CDC25B CDK2 inh -0.92.
`Cc1nn(CCCC(=O)N2CCN(C)CC2)c(=O)c2cc3sccc3n12` gave CDC25B CDK2 inh 1.11 and HIV TAR-Tat 0.1.
For COCCNC(=O)CCS(=O)(=O)c1cc2c(cc1Cl)NC(=O)CO2 the results were HIV TAR-Tat 1.34.
Screening COC(=O)Nc1ccc(S(=O)(=O)C(F)(F)F)cc1 returned CDC25B CDK2 inh -0.43.
O=S(=O)(c1ccc(Br)cc1)N1CCC(c2ccncc2)CC1 was read as HIV TAR-Tat 0.17.
`CCOC(=O)c1sc2ncnc(N)c2c1C` gave CDC25B CDK2 inh -0.87 and HIV TAR-Tat 0.67.
`COc1ccc(OC)c(-c2nc3ccc4ccccc4c3c3c2C(=O)c2ccccc2-3)c1` gave CDC25B CDK2 inh -1.7.

3 compounds from above, ordered by molar mass, lowest first.
Screening COC(=O)Nc1ccc(S(=O)(=O)C(F)(F)F)cc1 returned CDC25B CDK2 inh -0.43.
COc1ccc(-c2noc(-c3ccc(OC)c(OC)c3)n2)cc1OC was read as CDC25B CDK2 inh -0.21 and HIV TAR-Tat -0.66.
O=S(=O)(c1ccc(Br)cc1)N1CCC(c2ccncc2)CC1 was read as HIV TAR-Tat 0.17.

(list continues)
CC(Cc1ccco1)NC(=O)Cn1cnc(S(=O)(=O)N2CCCCC2)c1 (stereo not drawn) was read as HIV TAR-Tat 1.81.
`CCCN(Cc1cc2ccc(C)cc2[nH]c1=O)S(=O)(=O)c1ccccc1` gave CDC25B CDK2 inh -1.86 and HIV TAR-Tat 1.35.
Screening C1CCC2(C1)OCC(CN1CCOCC1)O2 (stereo not drawn) returned CDC25B CDK2 inh -1.06.
CCCSc1nc(=O)c2c(n1C)NC(=O)CC2c1cc(C)ccc1C (stereo not drawn) was read as CDC25B CDK2 inh -0.7 and HIV TAR-Tat 0.43.
`CCc1ccc(NC(=O)C2=CC(c3ccc4c(c3)OCO4)=NS(=O)(=O)N2C)cc1` gave CDC25B CDK2 inh -1.5 and HIV TAR-Tat 1.49.
O=c1c2cc3cc(Cl)ccc3oc-2nn1-c1ccccc1 was read as CDC25B CDK2 inh -1.33 and HIV TAR-Tat 0.
Screening CCOc1ccccc1NC(=O)c1cnc2sccn2c1=O returned CDC25B CDK2 inh -3.67.
`CCc1ccc(-c2cc(C)no2)cc1S(=O)(=O)Nc1ccc(F)cc1` gave HIV TAR-Tat 0.04.
Screening CCN1C(C(=O)OC)=C(OC(=O)CN2C(=O)CCC2=O)c2ccccc2S1(=O)=O returned CDC25B CDK2 inh -0.23 and HIV TAR-Tat 1.13.
For O=C1CCCN2N=C(SCC(=O)c3ccc(Cl)cc3)SC2=N1 the results were CDC25B CDK2 inh -0.58.
`O=C(CN1N=NC2C(=O)N(c3ccc(F)c(F)c3)C(=O)C21)Nc1ccccc1` (stereo not drawn) gave HIV TAR-Tat 0.47.
Screening CS(=O)(=O)N(Cc1ccccc1)Cc1ccccc1N1CCC(C(=O)O)CC1 returned CDC25B CDK2 inh 0.04.
Screening FC(F)(F)c1nnc2sc(-c3cc4ccccc4o3)nn12 returned CDC25B CDK2 inh 0.24 and HIV TAR-Tat 0.04.
Screening CCOC(=O)N1CCN(S(=O)(=O)c2coc(C)c2C(=O)OC)CC1 returned CDC25B CDK2 inh 0.17.
For O=C(NC1CCCC1)c1ccc(-n2cnc3cccnc32)cc1 the results were HIV TAR-Tat 0.79.
For CC(C)C(=O)Nc1c(C(=O)N2CCN(C(=O)c3ccco3)CC2)oc2ccccc12 the results were HIV TAR-Tat -0.07.
Cc1cc(C)c(-c2c(N3CCC(C)CC3)c(=O)c2=O)cc1C was read as HIV TAR-Tat 0.6.
For CCn1c(=O)c(C(=O)NCC2CCCO2)c(O)c2ccccc21 (stereo not drawn) the results were HIV TAR-Tat 1.88.
Screening CCCc1c(C(=O)Nc2ccc(F)cc2)cnn1-c1ccccc1 returned CDC25B CDK2 inh 1.01.
COc1ccc(F)cc1S(=O)(=O)NC1CC(C)(C)NC(C)(C)C1 was read as CDC25B CDK2 inh -2.01 and HIV TAR-Tat -0.37.
`CCC(C)NC(=O)C1CCN(C(=O)c2cc3sccc3n2CC)CC1` (stereo not drawn) gave CDC25B CDK2 inh -1.55 and HIV TAR-Tat 2.42.
O=c1cc(O)nc(-c2ccccc2)[nH]1 was read as CDC25B CDK2 inh 2.15.
For O=C(Cn1cc2c(n1)CCCC2)Nc1ccc(F)cc1F the results were CDC25B CDK2 inh -1.58 and HIV TAR-Tat -0.66.
`CCOc1ccccc1Nc1cc(C)nc2ccc(OC)cc12` gave CDC25B CDK2 inh -0.94 and HIV TAR-Tat -6.07.
Screening COc1ccc(C2CC(c3ccc(-c4ccccc4)cc3)Nc3ncnn32)cc1 (stereo not drawn) returned HIV TAR-Tat 0.53.
`Cc1cc(NS(=O)(=O)c2ccc(Nc3nc(-c4ccccc4)cs3)cc2)no1` gave CDC25B CDK2 inh -2.07.
Screening COc1ccc(N2C(=N)/C(=C3/Nc4ccccc4S3)CC2=O)cc1OC returned CDC25B CDK2 inh -2.09 and HIV TAR-Tat -1.97.
Cn1c(=O)c2c(nc(CN3CCCCC3)n2Cc2ccccc2)n(C)c1=O was read as CDC25B CDK2 inh -0.1 and HIV TAR-Tat 0.8.
For Cc1c(C2CCN(S(C)(=O)=O)CC2)c2ccccc2n1Cc1cccc(F)c1 the results were HIV TAR-Tat 0.44.
For COC(=O)CNC(=O)N1CCN(S(=O)(=O)c2ccc3c(ccn3C)c2)CC1 the results were HIV TAR-Tat 1.08.
Screening Cn1c(=O)cc(OCC(=O)NCCCN2CCCCCC2)c2ccccc21 returned CDC25B CDK2 inh 0.9.
O=C1c2cccnc2C(Nc2ccc(F)c(Cl)c2)N1Cc1ccc(F)cc1 (stereo not drawn) was read as CDC25B CDK2 inh -2.92 and HIV TAR-Tat -0.23.
For COc1ccc(N2CCN(CCNc3nc(=S)[nH]c4cc(OC)c(OC)cc34)CC2)cc1 the results were CDC25B CDK2 inh -1.54.
For Cc1cc2nc(CSCC(=O)Nc3ccc(F)cc3)cc(=O)n2o1 the results were HIV TAR-Tat 0.7.
Screening NCCn1c(-c2ccccc2)nc2ccccc21 returned HIV TAR-Tat 0.65.
Screening Cc1nn(-c2ccccc2)c2sc(C(=O)NC3CCCCC3)cc12 returned CDC25B CDK2 inh 0.03.
O=Nc1c(-c2cccs2)[nH]oc1=O was read as CDC25B CDK2 inh 0.62.
Screening COc1ccc(OC)c(S(=O)(=O)N2CCCC(C)C2)c1 (stereo not drawn) returned CDC25B CDK2 inh -0.38 and HIV TAR-Tat 2.25.
For CCC(=O)N1CCc2cc(S(=O)(=O)NC(CC(C)C)C(=O)NC3CCCC3)ccc21 (stereo not drawn) the results were CDC25B CDK2 inh -0.34 and HIV TAR-Tat 0.
Screening Cc1cc(Cl)ccc1Nc1nc(N2CCCCC2)nc2c1cnn2C returned HIV TAR-Tat 1.35.
CCOC(=O)c1cc(CC)sc1NC(=O)c1cccc(C(F)(F)F)c1 was read as CDC25B CDK2 inh -1.27.
`CC(=O)N1CCCSc2ccc(S(=O)(=O)NC3CCCCC3)cc21` gave HIV TAR-Tat 0.01.
Screening O=c1c2ccccc2nnn1Cc1noc(-c2cccs2)n1 returned HIV TAR-Tat 0.14.
For CCOC(=O)c1c(NC(=O)Cc2cccs2)sc(C(=O)NC2CCCC2)c1C the results were CDC25B CDK2 inh -1.83.
Screening O=C(NCCN1CCN(c2cccc(Cl)c2)CC1)c1coc(=O)c2ccccc12 returned CDC25B CDK2 inh -1.1 and HIV TAR-Tat 2.68.
`c1cncc(-c2nc3c4ccccc4nc(N4CCc5ccccc5C4)n3n2)c1` gave CDC25B CDK2 inh -0.66 and HIV TAR-Tat -0.79.
For CC(C)NC(=O)C1CCN(C(=O)N2CCOc3ccc(Cl)cc32)CC1 the results were HIV TAR-Tat 0.38.
For CN(C)CCN(C(=O)CCS(=O)(=O)c1ccccc1)c1nc2ccc(F)cc2s1 the results were HIV TAR-Tat -0.97.
For Cc1ccc(S(=O)(=O)C(CC(=O)c2ccc(F)cc2)c2ccco2)cc1 (stereo not drawn) the results were CDC25B CDK2 inh -2.7 and HIV TAR-Tat 0.35.
For Cc1cc2cc(CCNC(=O)c3cccs3)c(=O)[nH]c2cc1C the results were CDC25B CDK2 inh -1.17.

Random excerpt: 3 compounds from above, in no set order.
`O=C(CN1N=NC2C(=O)N(c3ccc(F)c(F)c3)C(=O)C21)Nc1ccccc1` (stereo not drawn) gave HIV TAR-Tat 0.47.
`CCOc1ccccc1Nc1cc(C)nc2ccc(OC)cc12` gave CDC25B CDK2 inh -0.94 and HIV TAR-Tat -6.07.
Screening COc1ccc(N2C(=N)/C(=C3/Nc4ccccc4S3)CC2=O)cc1OC returned CDC25B CDK2 inh -2.09 and HIV TAR-Tat -1.97.

Later entries
`CN(C)c1ccc(C=C2C(=O)N(c3ccccc3)C(=O)N(c3ccccc3)C2=O)cc1` gave CDC25B CDK2 inh -0.02.
COc1ccc(OCC(O)CNC(=O)C2CCC2)cc1 (stereo not drawn) was read as CDC25B CDK2 inh 2.24.
Screening Clc1ccc(-c2noc(C3CCc4ccccc4O3)n2)cc1 (stereo not drawn) returned CDC25B CDK2 inh -0.96.
For O=C1CN(Cc2c(F)cccc2Cl)S(=O)(=O)c2ccccc2N1Cc1ccccc1 the results were HIV TAR-Tat 0.57.
`Cn1c(=O)c(/C(N)=N/OC(=O)c2ccccc2Cl)cn(-c2ccccc2)c1=O` gave CDC25B CDK2 inh -3.39.
CS(=O)(=O)c1ccc(Cl)c(S(C)(=O)=O)c1 was read as CDC25B CDK2 inh -1.93 and HIV TAR-Tat 1.05.
Screening CCOC(=O)C1=C(C)NC(=O)CC1c1cc(OC)c(OC)cc1Br (stereo not drawn) returned CDC25B CDK2 inh -2.13 and HIV TAR-Tat 0.64.
Screening COc1cc2c(cc1OC)C(c1ccc(N(C)C)cc1)NCC2 (stereo not drawn) returned CDC25B CDK2 inh -1.09.
`COC(=O)C1=C(C(=O)OC)SC(=C2C(=S)C(C)(C)N(C(=O)C(C)C)c3cc(C)ccc32)S1` gave CDC25B CDK2 inh -1.28 and HIV TAR-Tat 0.48.
For CCCNC(=O)C(C)n1c2ccccc2c2nc(=O)cc(C)n21 (stereo not drawn) the results were CDC25B CDK2 inh -0.7 and HIV TAR-Tat 0.34.

Filtered by structure: the compounds so far containing bromine (3)
`CCOC(=O)c1c(C)[nH]c(C)c1S(=O)(=O)Nc1ccc(Br)c(C)c1` gave HIV TAR-Tat -0.38.
O=S(=O)(c1ccc(Br)cc1)N1CCC(c2ccncc2)CC1 was read as HIV TAR-Tat 0.17.
Screening CCOC(=O)C1=C(C)NC(=O)CC1c1cc(OC)c(OC)cc1Br (stereo not drawn) returned CDC25B CDK2 inh -2.13 and HIV TAR-Tat 0.64.

Further compounds follow.
CCCC(=O)Nc1nn2c(C(C)C)nnc2s1 was read as CDC25B CDK2 inh -1.42 and HIV TAR-Tat 1.76.
Screening CN(CCCNC(=O)Cn1ccc2cc(S(=O)(=O)N3CCCCC3)ccc21)C1CCCCC1 returned HIV TAR-Tat 0.18.
Screening CCOc1ccc(/C=C/c2nc(C#N)c(N3CCN(c4ccc(OC)cc4)CC3)o2)cc1 returned CDC25B CDK2 inh 0.37 and HIV TAR-Tat 0.75.
Screening COc1ccc(NC(=O)NC2(C(F)(F)F)Oc3ccccc3O2)c(OC)c1 returned CDC25B CDK2 inh 1.12.
Screening CCCN1C(=O)c2ccc(-c3ccco3)n2CC1(C)C(=O)NC1CCCC1 (stereo not drawn) returned HIV TAR-Tat 1.78.
`O=C1CC(c2ccc(OC3CCCC3)cc2)c2cnn(-c3nc4ccccc4s3)c2N1` (stereo not drawn) gave HIV TAR-Tat 3.03.
`CC(C)Cc1nc(SCC(=O)N(C)c2ccccc2)c2c(=O)n(C)c(=O)n(C)c2n1` gave HIV TAR-Tat 1.06.
Screening CC1(C)C=C(C(=O)N2CCCCC2)C(C)(C)N1 returned CDC25B CDK2 inh -1.06.
CN1CCN(S(=O)C23CC4CC(CC(C4)C2)C3)CC1 (stereo not drawn) was read as CDC25B CDK2 inh -0.98.
Screening COc1ccc(C2=NS(=O)(=O)N(C)C(C(=O)NC3CCCC3)=C2)cc1 returned CDC25B CDK2 inh -1.42 and HIV TAR-Tat 2.2.

Filtered by structure: those above containing an aryl thioether with sulfur outside any ring (2)
CCCSc1nc(=O)c2c(n1C)NC(=O)CC2c1cc(C)ccc1C (stereo not drawn) was read as CDC25B CDK2 inh -0.7 and HIV TAR-Tat 0.43.
`CC(C)Cc1nc(SCC(=O)N(C)c2ccccc2)c2c(=O)n(C)c(=O)n(C)c2n1` gave HIV TAR-Tat 1.06.

The list continues:
For O=c1[nH]c2ccc3nsnc3c2[nH]c1=O the results were CDC25B CDK2 inh -2.06.
CCOC(=O)c1c(NC(=O)c2csnn2)sc2c1CCCC2 was read as CDC25B CDK2 inh -2.8 and HIV TAR-Tat -0.92.
Screening CSc1ccc(/C=C/c2noc(-c3ccccc3O)n2)cc1 returned CDC25B CDK2 inh -0.22 and HIV TAR-Tat -0.55.
For Cc1cccc(CSc2ccc3nnc(CCNS(=O)(=O)c4ccccc4)n3n2)c1 the results were HIV TAR-Tat 1.94.
`O=C(Oc1cccc(F)c1F)c1ccc2nonc2c1` gave CDC25B CDK2 inh -1.55.
`Cc1nc(-c2cccs2)c(CC(=O)NCCC(C)C)s1` gave CDC25B CDK2 inh 1.14 and HIV TAR-Tat -2.56.
`Cc1ccc(S(=O)(=O)NNC(=O)c2cc(C)cs2)cc1` gave CDC25B CDK2 inh -0.57.
For O=C(CSc1ncnc2c1nnn2Cc1ccc(F)cc1)NCc1ccc2c(c1)OCO2 the results were CDC25B CDK2 inh -9.
For NNC(=O)Cc1cc(Br)sc1Br the results were CDC25B CDK2 inh 1.11.
